Bioassay records from PubChem.
YopH PTP inh: YopH (Yersinia) phosphatase inhibition; inhibition, %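 (about 10 µM by stock and volumes)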; hit rate 0.16% among 140,000; fluorescence Ex485/Em525;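 active means inhibition of 50% or more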;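 further: controls were vehicle for no effect and minimum signal wells for full effect; inactives centre near -20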
Mtb bLac sens: beta-lactam sensitization of Mtb H37Rv | M. tuberculosis H37Rv growth with meropenem, percent inhibition; hits of this screen are not shown here | inhibition, % at 25 µM | hit rate 0.27% among 330,000 | AID 434955;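 active means about 74% or more and at least 40 points above the plate without the antibiotic, then above 30% in a dose series; inconclusive means first-round hits that could not be retested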;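 further: growth measured after seven days incubation then overnight dye step; 0% = bacteria only wells and 100% = bacteria with antibiotic; twin plates without the antibiotic show which effects depend on it; some results filed as inactive read as strong as hits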
RecA intein inh: inhibitors of M. tuberculosis RecA intein splicing; P9WHJ3; cell-free RecA intein splicing, fluorescence; AID 2221; inhibition, %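 (about 9 µM by stock and volumes)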; hit rate 0.75% among 290,000; in the data active means inhibition above about 30%; inconclusive means no clear call, values can overlap the other calls;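 further: 0% = vehicle wells and 100% = reference inhibitor control wells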
Target sequence (P9WHJ3 whole entry, looked up): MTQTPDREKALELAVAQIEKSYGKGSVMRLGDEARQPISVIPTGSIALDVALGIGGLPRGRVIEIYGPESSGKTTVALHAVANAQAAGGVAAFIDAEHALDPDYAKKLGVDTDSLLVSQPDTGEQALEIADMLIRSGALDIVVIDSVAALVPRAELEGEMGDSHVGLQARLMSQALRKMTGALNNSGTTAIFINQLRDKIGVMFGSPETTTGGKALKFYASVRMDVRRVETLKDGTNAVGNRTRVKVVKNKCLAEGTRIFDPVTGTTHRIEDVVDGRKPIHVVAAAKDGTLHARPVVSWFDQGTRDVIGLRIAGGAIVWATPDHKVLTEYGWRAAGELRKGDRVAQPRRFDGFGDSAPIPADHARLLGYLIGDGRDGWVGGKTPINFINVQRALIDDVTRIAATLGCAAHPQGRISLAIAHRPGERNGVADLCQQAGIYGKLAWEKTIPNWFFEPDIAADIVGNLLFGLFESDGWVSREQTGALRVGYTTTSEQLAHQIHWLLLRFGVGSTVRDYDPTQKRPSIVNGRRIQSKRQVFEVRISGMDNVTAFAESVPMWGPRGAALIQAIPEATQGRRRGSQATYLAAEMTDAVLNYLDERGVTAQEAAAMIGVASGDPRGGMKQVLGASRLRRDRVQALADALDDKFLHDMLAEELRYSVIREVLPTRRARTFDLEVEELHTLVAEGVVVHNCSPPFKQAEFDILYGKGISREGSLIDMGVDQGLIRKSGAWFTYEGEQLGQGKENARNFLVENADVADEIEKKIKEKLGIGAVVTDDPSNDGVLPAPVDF
Mtb H37Rv: M. tuberculosis H37Rv growth inhibitors, H37Rv strain (AID 1626); hit rate 0.95% among 220,000; one-dose inhibition, % at 10 µM; IC50 in µM for titrated hits; M. tuberculosis H37Rv growth inhibition; higher % means a stronger effect;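 active means confirmed in a dose series; inconclusive means inhibition above 80% but not taken into the dose series; inactive means below 80% or under 30% at every dose of the series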;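 further: bacteria incubated seven days before Alamar blue readout; 0% = bacteria only wells and 100% = bacteria with antibiotic wells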
Arbovirus inh: antivirals against arbovirus infection. arbovirus infection cell-based antiviral screen. hit rate 0.37% among 200,000. inhibition, % at 10 µM;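 active means inhibition from about 30%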;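 further: bluetongue infection of BSR cells; cell survival read as ATP light after 72 h; 0% = infected wells without compound and 100% = uninfected wells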
Arbovirus inh repeat: second read-out of Arbovirus inh, no call of its own (marks repeat the call); inhibition, %; measured here: 10K subset replicate screen; many hits read low in the repeat;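 first of two repeat runs on a subset; 0% = infected and 100% = uninfected wells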
* hit, by the source's call; u = inconclusive; x = no result given.

SMILES	YopH PTP inh	Mtb bLac sens	RecA intein inh	Mtb H37Rv	Arbovirus inh	others
CN(C)S(=O)(=O)n1cc(/C=C(\NC(=O)c2ccccc2)C(=O)NCCCN2CCOCC2)c2ccccc21	x	-2	6.3	x	x
CCc1ccccc1S(=O)(=O)Cc1ccc(C(=O)NCc2ccc3c(c2)OCO3)o1	-35	-3	1.7	-4%	0	Arbovirus inh repeat=2
c1ccc(-c2nc(-c3cccnc3)cs2)cc1	x	16	2.0	x	x
COC(=O)C1CCN(C(=O)COC(=O)c2oc3ccccc3c2C)CC1	x	-9	-2.7	x	x
Cc1cc(C)c(S(=O)(=O)Nc2cccc(/C=C/C(=O)O)c2)c(C)c1	-41	4	3.5	8%	3
COC(C[C@@H]1O[C@@H]1C(=O)[C@H](C)OCc1ccccc1)OC	x	-6	0.3	-9%	x
COc1cccc(CN2CC(C(=O)NCCOc3cccnc3)CCC2=O)c1 (stereo unspecified)	x	-13	-0.3	x	x
O=C(Nc1ccccc1NC(=O)NC1CCCCC1)NC1CCCCC1	0	-1	-1.3	5%	-42
CCOC(=O)c1c(CN2CCCCC2)n(C)c2cc(Br)c(O)c(CN(C)C)c12	11	4	-1.2	5%	14	Arbovirus inh repeat=1
COc1ccc(C(C)(C)C)cc1NC(=O)Nc1ccc2c(c1)OCO2	-10	-6	1.8	x	-1

Reprinted from the part before: 2 entries; new compounds follow.
SMILES	YopH PTP inh	Mtb bLac sens	RecA intein inh	Mtb H37Rv	Arbovirus inh	others
CCOC(=O)c1c(CN2CCCCC2)n(C)c2cc(Br)c(O)c(CN(C)C)c12	11	4	-1.2	5%	14	Arbovirus inh repeat=1
COc1ccc(C(C)(C)C)cc1NC(=O)Nc1ccc2c(c1)OCO2	-10	-6	1.8	x	-1
O=C(O)CC(CNS(=O)(=O)c1cccc2nsnc12)c1ccccc1 (stereo unspecified)	x	-7	4.0	3%	16
COc1ccc(NC(=S)NC2CCS(=O)(=O)C2)cc1 (stereo unspecified)	-10	-5	-1.7	3%	0
O=C(N/N=C/c1cc(O)ccc1[N+](=O)[O-])c1ccc2c(c1)OCCO2	x	-9	-0.9	-6%	x
Cc1ccc(-c2c3c([nH]c(=S)c2C#N)CCCC3)o1	-34	-2	5.4	-6%	-14
CN(C)c1ccc(/C=N/NC(=O)CCC(=O)NCc2ccccc2)cc1	-9	3	0.6	-5%	-7
COc1ccc(N2CCN(C(CNC(=O)Oc3ccccc3)c3cccnc3)CC2)cc1 (stereo unspecified)	31	-2	5.4	-7%	12
O=C1CCCC(=O)N1c1ccc(NCCOCCO)c([N+](=O)[O-])c1	x	-4	0.1	-6%	1
COc1ccc(S(=O)(=O)N2CCCC(C(=O)NC3CCCCC3)C2)cc1 (stereo unspecified)	-52	-4	-2.5	-5%	1
COCCN(C(=O)c1cc(-c2ccncc2)nc2ccccc12)c1c(N)n(CC(C)C)c(=O)[nH]c1=O	x	-2	1.0	x	x
CC(=O)c1cccc(NS(=O)(=O)c2cc(OCC(N)=O)c(C)cc2Cl)c1	2	-4	5.5	-9%	2
O=C(CN(Cc1ccc(F)cc1)C(=O)Cn1nnc2ccccc21)NCC1CCCO1 (stereo unspecified)	-41	0	0.9	-6%	-2
CN(C)C=Nc1nonc1-c1ccc(Cl)cc1	x	-2	5.4	-2%	x
O=C(NCCc1ccccc1)c1ccc2nc(N3CCOCC3)sc2c1	x	0	-3.8	x	x
CC1(C)[C@@H](O)CC[C@]2(C)C3C(O)C=C4[C@H]5C[C@@](C)(C(=O)O)CC[C@]5(C)CC[C@]4(C)[C@]3(C)CC[C@@H]12 (stereo partly specified)	x	-7	5.1	-19%	x
CCn1c(SCC(=O)c2ccc3c(c2)OCCO3)nnc1-c1ccco1	-25	51	-0.1	3%	-5
COc1ccc2oc(C(=O)OC/C(O)=C(\C#N)c3nc4ccccc4[nH]3)c(C)c2c1	x	-2	3.0	8%	x
CCCCCn1c(=O)c(C(=O)NCc2ccncc2)c(O)c2ccccc21	-44	x	25	41%	-39
Cc1nn(-c2ccccc2)c(Cl)c1C(=O)OC(C)C(=O)NC(=O)NC1CCCCC1 (stereo unspecified)	15	4	5.7	-2%	-2
COC(Cc1n[nH]c(=S)n1-c1ccccc1)OC	-27	-2	-2.3	-7%	1
CC(C)=NNc1nc2sc3c(c2c(=O)[nH]1)CC(C)(C)OC3	-17	0	-5.9	-5%	-2
COc1ccc(C(C(=O)NCc2ccccc2)N(C(=O)c2snc(C(N)=O)c2N)C2CCCC2)cc1O (stereo unspecified)	x	4	-0.5	x	x
N/C(Cc1ccc([N+](=O)[O-])cc1)=N\OC(=O)C1CCCCC1	x	2	-0.9	-10%	8
O=C(Cn1c(=O)n(-c2ccc(F)cc2)c(=O)c2sccc21)N1CCCC1	-12	x	-3.5	7%	4
CCn1c(-c2ccccc2Cl)nn(CC(=O)Nc2ccc(OC)cc2)c1=S	-27	-3	-0.3	-5%	-3
Clc1ccc(CN2CCN(c3ncccn3)CC2)c(Cl)c1	x	1	3.8	x	x
CC1=CC(C)(C)N(C(=O)CSc2nccn2C)c2cc(C)ccc21	8	9	2.3	0%	1	Arbovirus inh repeat=-6
CC(NC(=O)CSc1nnc(-c2cc3cc(Cl)ccc3o2)n1C)c1ccccc1 (stereo unspecified)	18	5	3.2	5%	-3
Cc1nc(N)ncc1Sc1ccccc1	x	97	-2.1	52%	x
Cc1cc2cc(CN(Cc3nnnn3C3CCCCC3)CC3CCCO3)c(=O)[nH]c2cc1C (stereo unspecified)	-46	-2	3.3	0%	-11
Oc1ccccc1CNCc1ccccc1	x	-7	-2.3	-1%	5
Cc1ccccc1CSCC(=O)Nc1ccccc1F	x	-3	3.1	x	x
Cc1cc(C)c2c(=O)[nH]c(SCC(=O)N3CCOCC3)nc2n1	x	2	0.0	-4%	1
CCc1ccccc1NC(=O)NCc1ccccn1	x	-3	-0.2	x	x
CCN(CC)P(=O)(/C(Cl)=C\Nc1c(C)n(C)n(-c2ccccc2)c1=O)N(CC)CC	-28	-4	-3.9	0%	6
O=C(Nc1ccc(F)cc1F)NC1CCCCCCC1	x	100	0.6	x	x
CN(C)C(CNC(=O)c1ccc(Br)cc1)c1ccco1 (stereo unspecified)	x	-6	0.1	x	x
C/C(CC(=O)c1ccccc1)=N\NC(=O)CC#N	x	-10	2.1	-3%	1
CC(C)=CCC/C(C)=C/CC(C)(C)CNCCN1CCNCC1	0	-8	0.7	-2%	-30
Cc1cc(C)nc(N/N=C/c2ccc(N3CCOCC3)cc2)n1	x	-7	-17	-2%	-1
O=C(C1CCN(S(=O)(=O)N2CCCCC2)CC1)N1CCCCC1	-24	3	1.2	-3%	4

As a short view, some entries already given:
SMILES	YopH PTP inh	Mtb bLac sens	RecA intein inh	Mtb H37Rv	Arbovirus inh	others
Clc1ccc(CN2CCN(c3ncccn3)CC2)c(Cl)c1	x	1	3.8	x	x
CC1=CC(C)(C)N(C(=O)CSc2nccn2C)c2cc(C)ccc21	8	9	2.3	0%	1	Arbovirus inh repeat=-6
CC(NC(=O)CSc1nnc(-c2cc3cc(Cl)ccc3o2)n1C)c1ccccc1 (stereo unspecified)	18	5	3.2	5%	-3
Cc1nc(N)ncc1Sc1ccccc1	x	97	-2.1	52%	x
Cc1cc2cc(CN(Cc3nnnn3C3CCCCC3)CC3CCCO3)c(=O)[nH]c2cc1C (stereo unspecified)	-46	-2	3.3	0%	-11
Oc1ccccc1CNCc1ccccc1	x	-7	-2.3	-1%	5
Cc1ccccc1CSCC(=O)Nc1ccccc1F	x	-3	3.1	x	x
Cc1cc(C)c2c(=O)[nH]c(SCC(=O)N3CCOCC3)nc2n1	x	2	0.0	-4%	1
CCc1ccccc1NC(=O)NCc1ccccn1	x	-3	-0.2	x	x
CCN(CC)P(=O)(/C(Cl)=C\Nc1c(C)n(C)n(-c2ccccc2)c1=O)N(CC)CC	-28	-4	-3.9	0%	6
O=C(Nc1ccc(F)cc1F)NC1CCCCCCC1	x	100	0.6	x	x
CN(C)C(CNC(=O)c1ccc(Br)cc1)c1ccco1 (stereo unspecified)	x	-6	0.1	x	x
C/C(CC(=O)c1ccccc1)=N\NC(=O)CC#N	x	-10	2.1	-3%	1
CC(C)=CCC/C(C)=C/CC(C)(C)CNCCN1CCNCC1	0	-8	0.7	-2%	-30

Next section
SMILES	YopH PTP inh	Mtb bLac sens	RecA intein inh	Mtb H37Rv	Arbovirus inh	others
c1ccc(-c2oc3ncnc(NCCCn4ccnc4)c3c2-c2ccccc2)cc1	-28	97	11	7.3µM*	-24
CCOc1ccc(CCN2C(=O)C(=O)N([C@H](CCCN(C)Cc3ccccc3)CNCc3ccccc3)C[C@@H]2C(C)C)cc1	x	x	2.9	-13%	x
O=C(NN1CCOCC1)c1ccc(S(=O)(=O)N2CCCCC2)cc1	x	-5	-1.0	1%	1
O=S(=O)(Nc1nccs1)c1ccc(Br)cc1	x	-7	2.2	-1%	1
Cc1cccc(OC(=O)c2cn(C)nc2C(F)(F)F)c1C	-15	-7	6.4	5%	2
Cc1nc(-c2c(C(=O)NNC(=O)Nc3c(C)cccc3C)noc2C)cs1	x	1	6.3	-8%	x
S=c1sc2c(N3CCOCC3)ncnc2n1-c1ccccc1	x	u	-0.6	4%	-5	Arbovirus inh repeat=-5
O=C(NCc1ccccc1)c1ccco1	36	0	0.2	-15%	-2
O=c1cc(CNc2ccc(Br)cc2)nc2sccn12	-24	-5	0.9	-3%	-11
COC(=O)Cn1c2ccc(OC)cc2c2nc3ccccc3nc21	-48	-1	-18	4%	-8
O=C(c1ccc(OC2CCN(C(=O)c3cccnc3)CC2)cc1)N1CCCCCC1	x	-7	0.2	-3%	5
CC(C)N(C(=O)COC(=O)CNS(=O)(=O)c1ccccc1F)c1ccccc1	x	-8	-3.5	-1%	4
O=C(O)c1ccc(C2CCCCC2)cn1	-18	u	1.5	-3%	-20
COc1cccc(N(CC(=O)Nc2ccc3c(c2)OCO3)S(=O)(=O)c2ccccc2)c1	-32	-3	15	2%	-18
COc1ccc(CC(=O)Nc2nnc(C)s2)cc1	-12	-5	-0.8	-7%	0
O=C(COC(=O)C12CC3CC(CC(C3)C1)C2)Nc1ncc(Cl)cc1Cl	-15	53	1.5	-7%	-1
CCN(/N=C/c1cccs1)c1cc(=O)n(C)c(=O)[nH]1	-12	-7	16	-10%	-22
O=C(Nc1ccccc1)Nc1nnc(/C=C/c2ccccc2Cl)s1	-26	-11	-1.1	2%	6
O=c1c(C/C=C/c2ccccc2)c(O)ccn1CCc1c[nH]c2ccccc12	x	6	6.9	7%	13
O=C(Nc1ccc(NC(=O)c2cccs2)cc1Cl)c1ccco1	x	-12	-1.8	2%	-10
CCOc1ccc(CCNC(=O)CCC(=O)Nc2ccc3nc(N4CCN(C)CC4)cc(C)c3c2)cc1OCC	x	1	-0.6	1%	-3
CCN1C/C(=C/c2sccc2C)c2nc3ccccc3c(C(=O)O)c2C1	x	1	-14	-1%	x
C=CCOC(=O)C1=C(C)NC(=O)NC1c1cn(-c2ccccc2)nc1-c1cccs1 (stereo unspecified)	-30	0	6.7	17%	-11
O=C(Nc1ccc(Oc2ccccc2)nc1)C1CCN(Cc2cccc(F)c2)CC1	x	u	1.6	x	x
O=C(Nc1ccccc1Br)c1ccc(OC(=S)N2CCOCC2)cc1	x	-6	-0.7	-4%	0
CCNS(=O)(=O)c1ccc(CCC(=O)N2CCC(C)CC2)cc1	x	-4	1.3	x	x
O=C1COc2ccc(C(=O)COC(=O)/C=C/c3cccc(F)c3)cc2N1	x	-2	-0.1	-4%	x
O=c1c2cc(NC(=S)N3CCCC3)ccc2nc2n1CCCCC2	x	-3	-0.5	5%	4
CCSC1=NN1c1cc(C)nc(N)n1	x	-3	0.5	2%	x
COc1ccc(CCNc2nc(-c3ccccn3)cs2)cc1OC	x	95	-0.2	x	x
OCCNCc1cc(Br)ccc1OCc1ccccc1	-23	6	-1.2	-3%	7
COC(=O)C(NC(=O)C(CC(C)C)NC(=O)C1CCC(C)CC1)C(C)C (stereo unspecified)	-18	-4	-1.3	-2%	1
CCCCOC(=O)C1=C(C)Nc2ncnn2C1c1cc(OC)ccc1OC (stereo unspecified)	-10	-3	-11	-8%	0
O=C(Nc1nncs1)c1cc(S(=O)(=O)N2CCOCC2)ccc1Cl	x	-5	0.1	x	x
CN=c1scc(C)n1/N=C/c1ccc(O)cc1O	-8	-2	-4.7	7%	-24
Cc1ccc(-c2nnc3cccc(Cl)n23)cc1	x	-15	-1.2	-5%	3
COc1ccc(Nc2nc(-c3cccc(OC)c3O)nc3ccccc23)cc1	x	31	8.0	x	x
NS(=O)(=O)c1ccc(CNC(=O)c2cc(-c3cccs3)nc3ccccc23)cc1	x	-3	2.5	-3%	x
COc1ccc(S(=O)(=O)Nc2cccc(S(=O)(=O)NC3=NCCC3)c2)cc1[N+](=O)[O-]	x	-18	-0.3	x	x

Only part of the results is shown, so the mix of outcomes need not match the whole.
